Source: PubChem BioAssay (several laboratories)
CSC inhib: cancer stem cell inhibition; cancer stem cell-like cells viability, luminescence; inhibition, % at 7.5 µM; actives 1.1% (n = 300,000);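 active = mean at 75% or more and at least half the replicates too; inconclusive = mean and replicates disagree; tested in HMLE shEcad cells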;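 note: 0% = median of negative and 100% = median of positive control wells; the first replicate is given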
PABP FP inh: PABP-poly(A) binding inhibition; inhibition, % at 35 µM; P11940; AID 2014; PABP-poly(A) RNA binding, fluorescence polarization; actives 1% (n = 290,000);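 active = 50% or more with normal probe brightness, or confirmed in later tests; inconclusive = above 50% with abnormal brightness, or retests that disagree; inactive = below 50% or failed in later tests; about a fifth of its hits are not listed in these tables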;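 note: calls also rest on retests at 20 µM and on dose response follow-up; controls were probe without protein and protein plus probe with vehicle; some compounds called inactive have numbers as strong as hits; many hits fall short of the cut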
Target sequence (P11940 whole entry, looked up): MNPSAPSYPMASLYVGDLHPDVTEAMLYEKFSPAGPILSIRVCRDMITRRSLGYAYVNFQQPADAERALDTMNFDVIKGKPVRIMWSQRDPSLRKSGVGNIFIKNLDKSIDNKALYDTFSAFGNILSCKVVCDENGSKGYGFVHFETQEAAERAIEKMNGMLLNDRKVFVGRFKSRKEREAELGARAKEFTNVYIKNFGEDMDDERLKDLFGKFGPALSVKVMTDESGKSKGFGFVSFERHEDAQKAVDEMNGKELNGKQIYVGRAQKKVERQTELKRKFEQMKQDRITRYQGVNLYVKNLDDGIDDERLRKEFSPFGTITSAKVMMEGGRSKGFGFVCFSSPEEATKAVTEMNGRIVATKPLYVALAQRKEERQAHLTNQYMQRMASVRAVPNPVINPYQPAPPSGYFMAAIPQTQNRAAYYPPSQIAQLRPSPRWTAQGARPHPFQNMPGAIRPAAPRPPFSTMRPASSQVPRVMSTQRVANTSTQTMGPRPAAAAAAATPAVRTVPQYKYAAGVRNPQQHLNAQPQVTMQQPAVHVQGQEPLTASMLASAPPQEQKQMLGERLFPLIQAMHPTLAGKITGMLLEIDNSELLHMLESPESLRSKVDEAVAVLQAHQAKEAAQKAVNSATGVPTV
UUG fidelity: alters start codon recognition fidelity in yeast | S. cerevisiae UUG-firefly luciferase reporter, luminescence/redox ratio | activity score, % at 18.7 µM | actives 0.13% (n = 350,000) | AID 602363;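 active = replicate mean at a twofold rise or more, about +100% in these data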;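 note: firefly luciferase made from a UUG start codon reports start codon fidelity; reporter light over untreated wells divided by growth signal over untreated wells; some hits fall short of that in this replicate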
eIF4H inh: inhibitors of RNA binding by human eIF4H; Q15056; eIF4H fluorescence polarization binding assay; inhibition, % at 35 µM; actives 0.94% (n = 290,000); AID 2012;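 active = 50% or more with normal probe brightness, or confirmed in later tests; inconclusive = above 50% with abnormal brightness, or retests that disagree; inactive = below 50% or failed in later tests; about a fifth of its hits are not listed in these tables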;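 note: calls also rest on retests at 20 µM and on dose response follow-up; 0% = protein and probe with vehicle and 100% = probe without protein; strong numbers were not always called active; many hits fall short of the cut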
Rce1 inhib: inhibitors of yeast Ras-converting enzyme; Q03530; yeast membranes, quenched prenylated peptide cleavage fluorescence; calls only; actives 0.27% (n = 290,000);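 active = fall in fluorescence gain of 50% or more versus controls, with final raw signal at or below 3038400; inconclusive = same 50% fall but final raw signal above 3038400; inactive = fall in fluorescence gain under 50%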;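 note: plate controls were neutral control wells for no effect and wells lacking membranes for full effect; tested at 10 µM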
Target sequence (Q03530 whole entry, looked up): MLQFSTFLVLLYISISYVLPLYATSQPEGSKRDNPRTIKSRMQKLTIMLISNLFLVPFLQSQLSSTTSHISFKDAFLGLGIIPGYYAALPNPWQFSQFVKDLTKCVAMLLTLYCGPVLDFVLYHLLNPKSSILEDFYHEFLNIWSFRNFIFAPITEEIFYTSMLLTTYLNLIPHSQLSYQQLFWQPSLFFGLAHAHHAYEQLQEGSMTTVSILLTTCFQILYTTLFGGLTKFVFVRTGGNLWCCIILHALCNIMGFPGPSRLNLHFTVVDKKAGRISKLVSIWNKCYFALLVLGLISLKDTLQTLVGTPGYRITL
Env fusion inh: HIV envelope-mediated fusion inhibition; HeLa-JRFL Env/CEM21 cell fusion, luciferase; inhibition, % at 12.3 µM; actives 1.1% (n = 360,000); AID 651610;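 active = mean replicate inhibition score of at least 50 and every replicate individually at or above 50; inconclusive = only one of the two criteria met; inactive = mean below 50 and not all replicates reaching 50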;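 note: 0% = plate neutral controls and 100% = maraviroc near 300 nM; one replicate is shown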
MT1-MMP act inh: MT1-MMP (human) activation inhibition. HT1080 RFP-PRO-GFP cells, GFP/RFP ratio fluorescence, overnight; percent of plate control window, DMSO zero. GFP/RFP ratio change, % at 20 µM. actives 0.061% (n = 360,000). AID 651647;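 active = GFP/RFP ratio change of at least 30% with cell ATP level not reduced by more than half and red fluorescence within 50% of control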; note: strong numbers were not always called active
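Assay system: HT1080 cells carrying an RFP-PRO-GFP reporter | Dosing: Single dose of 20 µM compound, 1% DMSO final | Incubation: Cells overnight before dosing, compound overnight, 37 °C, 5% CO2 | Evaluation: GFP/RFP fluorescence ratio | Control set: DMSO and RFP-L50D-GFP cell wells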
MT1-MMP act inh RFP: second read-out of MT1-MMP act inh, no call of its own (marks repeat the call); RFP signal change, %; measured here: RFP expression control read;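 0 = vehicle wells; hits needed this value within 50% of zero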
* hit, by the source's call; i = inactive; ? = inconclusive; . = no result given. These rows are one share of the data; the hit share may differ from the screen's.

SMILES	CSC inhib	PABP FP inh	UUG fidelity	eIF4H inh	Rce1 inhib	Env fusion inh	MT1-MMP act inh	MT1-MMP act inh RFP
Cc1nc(N2CCN(c3ccccn3)CC2)c2c(C)c(C(=O)Nc3c(F)cc(F)cc3Br)sc2n1	22.0	-10.9	2.6	-10.7	i	20.2	3.5	-18.3
COCCN1C(=O)c2oc3ccccc3c(=O)c2C1c1ccc(C(=O)OC)cc1 (centres undefined)	3.4	5.3	-12.2	-5.0	i	22.0	1.6	4.5
COc1ccc(Cc2nnc(SC)[nH]c2=O)cc1	-17.9	2.5	-4.3	6.9	i	-32.4	2.7	4.3
CCN(C(=O)CCCCC(=O)N(CC)c1ccccc1)c1ccccc1	-1.3	.	4.1	.	i	9.8	1.6	4.8
N#Cc1c(NC(=O)CSc2nnc(-c3ccccc3O)n2-c2ccccc2)sc2c1CCCC2	17.6	10.9	-19.2	5.8	i	.	1.2	0.4
C/C(=N\NC(=O)CNC(=O)c1cccnc1)c1cccc(O)c1	-4.4	-0.7	-14.4	-4.1	i	14.7	-11.6	-1.3
Cc1ccc(/C(C#N)=C\c2ccc(N3CCOCC3)o2)cc1	36.0	25.4	-21.5	22.6	i	.	-52.5	7.7
CNC(=O)c1ccc(-c2ccc(F)cc2)s1	-1.7	1.7	-12.7	1.9	i	.	1.6	1.2
O=C(Nc1ccc2c(c1)oc1ccccc12)c1ccc(Br)o1	11.4	3.8	-28.2	10.8	i	.	-0.3	2.1
Cc1nn(C(C)C(=O)N/N=C/c2ccc(N(C)C)cc2)c(C)c1[N+](=O)[O-] (centres undefined)	-3.2	0.8	-4.5	-8.4	i	2.3	0.6	-1.2
CCOc1ccc(NC(=O)CN(C)CC(=O)NC(C)c2ccccc2)cc1OCC (centres undefined)	-9.9	-11.0	-6.0	-5.8	i	1.3	0.8	5.8
COc1ccc(Cl)cc1N(CC(=O)NCCSCc1ccccc1)S(C)(=O)=O	2.2	8.4	-11.2	-8.1	i	46.9	0.7	-1.2

Rewritten comma-delimited: three of the compounds above.
SMILES,CSC inhib,PABP FP inh,UUG fidelity,eIF4H inh,Rce1 inhib,Env fusion inh,MT1-MMP act inh,MT1-MMP act inh RFP
COCCN1C(=O)c2oc3ccccc3c(=O)c2C1c1ccc(C(=O)OC)cc1 (centres undefined),3.4,5.3,-12.2,-5.0,i,22.0,1.6,4.5
COc1ccc(Cc2nnc(SC)[nH]c2=O)cc1,-17.9,2.5,-4.3,6.9,i,-32.4,2.7,4.3
CCN(C(=O)CCCCC(=O)N(CC)c1ccccc1)c1ccccc1,-1.3,.,4.1,.,i,9.8,1.6,4.8

(listing goes on)
SMILES	CSC inhib	PABP FP inh	UUG fidelity	eIF4H inh	Rce1 inhib	Env fusion inh	MT1-MMP act inh	MT1-MMP act inh RFP
Cc1ccc(Cn2c(NCCCn3ccnc3)nc3c2c(=O)n(C)c(=O)n3C)cc1	-15.5	-3.0	.	-4.5	i	.	3.1	2.1
CCOc1ccccc1C(=O)Oc1ccc2ccc(=O)oc2c1	-1.6	4.3	-7.4	-2.8	i	-10.4	-2.6	2.5
COc1ccc(NC(=O)c2c(Cl)n(C)c3ccccc23)cc1	41.6	2.4	-15.3	5.7	i	.	1.8	-3.1
CC(C)=CCOc1ccc2c(C)c(CC(=O)N3C[C@H]4C[C@@H](C3)c3cccc(=O)n3C4)c(=O)oc2c1C	-11.4	1.9	-17.7	9.4	.	.	2.7	4.0
COc1cc(C)c(Br)cc1S(=O)(=O)NCc1ccncc1	-9.3	-10.1	.	-12.5	i	7.1	7.5	-23.2
O=P(O)(c1ccc(Cl)cc1)c1ccc(Cl)cc1	-6.2	17.0	7.8	21.0	i	.	5.6	2.3
CCOc1ccc(C2Sc3ccccc3NC3=C2C(=O)OC3)cc1 (centres undefined)	.	-3.4	-25.1	-8.6	i	.	-31.2	-22.9
Cc1ccccc1CCN1CCCC(CN(C)C(=O)C(=O)c2ccco2)C1 (centres undefined)	6.6	2.0	-4.1	29.1	i	7.6	0.7	2.5
CCn1cc(C(=O)NCc2cccc(C(F)(F)F)c2)c(=O)c2ccc(C)nc21	11.2	-4.5	-3.9	-2.2	i	8.3	5.5	5.2
O=C(CCn1c(=O)[nH]c2ccsc2c1=O)N1CC(=O)N(CCc2ccccc2)C(=O)C1	-14.6	5.9	-18.7	0.4	i	-25.5	-0.7	5.0
CCOC(=O)c1c(C)nc2sc3c(=O)n(-c4ccc(C(C)=O)cc4)nnc3c2c1-c1ccc(Cl)cc1	18.7	-6.4	-15.7	-8.4	i	.	-12.0	-14.9
COc1ccc(CNC(=O)CN(Cc2ccco2)C(=O)CNS(=O)(=O)c2ccccc2)cc1	-8.7	4.9	-6.6	2.5	i	4.4	-2.3	-2.2
Cc1cc(C)cc(N2C(=O)C3CC=CCC3C2=O)c1 (centres undefined)	-24.4	14.1	-20.9	0.7	i	-44.9	2.3	3.7
Cc1cn([C@H]2C[C@H](O)[C@@H](/C=C/C(=O)NCCN3CCOCC3)O2)c(=O)[nH]c1=O	.	.	-12.8	.	.	-5.6	2.9	-0.9
COc1ccccc1CNC(=O)C1CCC(CNS(=O)(=O)c2cccs2)CC1 (centres undefined)	2.2	-4.3	7.7	-1.0	.	-3.6	-2.2	-0.8
Cc1ccc(-n2nc3c(c2NC(=O)C(C)(C)C)CS(=O)(=O)C3)cc1	-15.0	6.3	2.5	-20.6	i	.	0.0	0.7
O=S(=O)(O/N=C1\CCCc2ccccc21)c1ccc(Cl)cc1	-8.1	27.7	-11.6	1.0	i	-16.0	8.6	3.4
CCOc1ccc2ccccc2c1C1NC(=S)N(C)C(C)=C1C(=O)OC (centres undefined)	-9.9	0.8	.	4.7	i	17.6	7.6	8.2
Cc1[nH]c2ccccc2c1C(=O)CSC(=S)N1CCN(C)CC1	13.5	10.4	-10.0	6.2	i	-8.8	0.7	-0.4
COc1ccc(C(=O)NN2CCOCC2)cc1	-31.6	4.0	12.7	-9.0	i	-17.9	1.3	7.0
CC(C)(C)OC(=O)CNC(=O)c1[nH]cnc1C(=O)N[C@@H](Cc1ccccc1)C(=O)OC(C)(C)C	1.1	7.6	1.9	8.1	i	6.3	-2.1	-2.3
CN1CCc2c(sc3c2c(=O)n(-c2ccccc2)c2nnc(SCc4ccccc4)n32)C1	.	-9.1	-6.7	-6.8	i	-99.0	-5.0	-0.6
COc1ccc(NC(=O)c2cc(C3CCCCN3C(=O)CCc3ccccc3)on2)c(C)c1 (centres undefined)	.	.	-2.2	.	.	-1.2	-6.9	-14.1
CN(C(=O)c1ccoc1)c1ccc2ccccc2c1	.	3.6	-18.5	-8.2	i	-0.2	-2.5	-5.8
CNS(=O)(=O)c1cc(Nc2ncnc3sccc23)ccc1C	-7.6	-6.5	-13.6	1.9	i	27.8	-2.5	-6.7
Oc1c(I)cc(Cl)c2cccnc12	84.4*	6.4	-46.9	20.9	i	5.2	2.3	0.0
Cc1c(-c2nn(C)c(=O)c3ccccc23)oc2ccc(F)cc2c1=O	-5.4	0.0	-4.8	-3.9	i	.	-3.2	5.2
CN(C)c1nc(Oc2ccc(=O)n(-c3ccccc3)n2)nc(N2CCOCC2)n1	-8.7	0.4	-11.4	-4.8	i	-54.6	0.4	-4.0
[O-][n+]1ccccc1SC/C=C/c1ccccc1	-10.8	-3.9	.	-4.4	i	?	2.3	3.6
CCN(CC(=O)Nc1c(F)cccc1F)C(=O)c1ccc(S(=O)(=O)N2CCCCCC2)cc1	.	.	8.9	.	.	6.8	-1.1	-2.0
CC1CCN(CCCNC(=O)c2ccc3c(=O)n(Cc4ccc(Cl)cc4)c(=S)[nH]c3c2)CC1	88.0*	-0.1	-12.2	-6.7	i	3.1	-2.0	-6.3
CC1(c2nnc(Cc3ccccc3)o2)CC(c2ccc(F)cc2)=NO1 (centres undefined)	-7.1	.	-12.2	.	i	-14.9	-1.9	-0.6
COc1ccc(C)cc1NC(=O)c1cnc2sccn2c1=O	.	6.4	.	0.7	.	-8.2	.	.
CCCOC(=O)CC1C(=O)NCCN1Cc1ccccc1C (centres undefined)	-7.8	.	-10.7	.	i	11.6	-0.7	3.7
COc1cc(NC(=O)c2cc(C)no2)c(OC)cc1Cl	-12.0	-8.7	2.9	-1.7	i	24.5	-0.1	1.3
O=c1oc2ccccc2c(Nc2ccc(F)cc2)c1[N+](=O)[O-]	5.5	2.2	.	5.2	i	18.7	0.5	-2.1
CC(C)CNc1ncnc2c1ncn2[C@H]1CN(CCc2ccccc2)C[C@@H](CO)O1	.	.	14.6	.	.	-16.6	2.8	4.5
Cc1ccc(C)c(Oc2nnnn2-c2ccccc2)c1	-10.2	-10.2	-7.6	-6.3	i	-32.8	4.8	0.7
Clc1cccc(Cl)c1-c1noc(CN2CCOCC2)n1	9.5	-6.9	.	-3.3	i	-7.6	0.2	-2.0
CCCS(=O)(=O)n1nc(-c2ccc(Br)cc2)cc1N	-9.8	37.5	-6.6	-8.7	i	-93.9	1.8	-2.6
Cc1ccc(SCCNS(=O)(=O)c2ccc(F)cc2)cc1	-20.3	-3.0	21.3	-4.4	i	-5.9	0.9	0.5
Cc1ccc(-n2cc(CNC(C)Cn3cncn3)c(-c3ccc(F)cc3)n2)cc1 (centres undefined)	-9.4	3.2	.	0.1	i	-8.1	6.2	-2.3
N/C(=N\OS(=O)(=O)c1ccc(Cl)cc1)c1cccnc1	-0.1	-8.6	-6.6	-5.2	.	11.4	3.6	3.8
CC(Oc1ccc(F)cc1)C(=O)Nc1cc(S(=O)(=O)N2CCOCC2)ccc1N1CCCCC1 (centres undefined)	15.6	.	-6.5	.	i	14.1	-9.1	-13.6
CC1(c2cnc(Nc3ccccc3)s2)CCC(=O)O1 (centres undefined)	11.8	-14.4	0.6	-18.3	i	-25.2	-24.3	-7.3
Cc1ccc(N2CCN(/N=C/C(Cl)=C/c3ccccc3)CC2)cc1	1.1	5.7	5.4	5.8	i	-0.1	-1.8	-7.3
O=C(CNC(=O)C1CC(=O)N(c2cccc3ccccc23)C1)Nc1ccccc1Br (centres undefined)	-9.0	.	-10.8	.	.	-7.6	-2.1	-4.1
Cc1nc2n(n1)C(c1ccccc1)C1=C(CC(c3ccco3)CC1=O)N2 (centres undefined)	-1.0	12.9	-17.7	6.0	i	-24.6	2.9	2.0
NC(=O)CSc1oc(-c2ccco2)nc1S(=O)(=O)c1ccc(F)cc1	-7.3	2.5	-11.5	0.7	i	.	0.1	5.1
CC(Sc1nnc(CNc2cccc3ccccc23)n1-c1ccccc1)C(=O)N/N=C/c1ccco1 (centres undefined)	3.4	3.8	-14.6	-2.3	i	39.8	-2.7	0.0

Full records as entered above:
Cc1ccc(SCCNS(=O)(=O)c2ccc(F)cc2)cc1 as listed: CSC inhib = -20.3; PABP FP inh = -3.0; UUG fidelity = 21.3; eIF4H inh = -4.4; Rce1 inhib = i; Env fusion inh = -5.9; MT1-MMP act inh = 0.9; MT1-MMP act inh RFP = 0.5
N/C(=N\OS(=O)(=O)c1ccc(Cl)cc1)c1cccnc1 as listed: CSC inhib = -0.1; PABP FP inh = -8.6; UUG fidelity = -6.6; eIF4H inh = -5.2; Rce1 inhib = .; Env fusion inh = 11.4; MT1-MMP act inh = 3.6; MT1-MMP act inh RFP = 3.8
